High-throughput results: PubChem, National Center for Advancing Translational Sciences (NCATS)
HPGD block – HPGD (human) dehydrogenase inhibition; P15428; purified HPGD, NADH fluorescence kinetic, PGE2 substrate; Potency, µM, without a hit: top-dose activity change, negative = inhibition, actives largely listed as inhibitors; actives 4.3% (n = 150,000); AID 894; active = well fitted inhibition curve with a large enough effect (not every such curve was filed as active); inconclusive = small, poorly fitted or top-dose-only effect, or another doubt; inactive = no such curve, though single readings can be large or run the other way;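 also: top concentration of the series not given in the record; plate controls included wells without enzyme; inactives centre near -10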
Target sequence (P15428 whole entry, looked up): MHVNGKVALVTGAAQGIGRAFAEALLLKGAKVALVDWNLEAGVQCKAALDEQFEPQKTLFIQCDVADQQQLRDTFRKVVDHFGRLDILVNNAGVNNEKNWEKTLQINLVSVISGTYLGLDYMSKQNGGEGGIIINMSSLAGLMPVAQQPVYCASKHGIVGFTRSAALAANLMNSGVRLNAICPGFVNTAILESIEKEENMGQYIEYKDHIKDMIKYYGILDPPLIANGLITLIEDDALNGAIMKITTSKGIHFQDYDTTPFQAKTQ
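20 nM HPGD preincubated 15 min at room temperature with compound in 50 mM Tris-HCl pH 8, 0.01% Tween 20. Started with 1 mM NAD+ and 30 uM prostaglandin E2; NADH fluorescence (360/450 nm) read 5 times over 30-s intervals, last minus first.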
* marks the source's active call; other numbers are inactive results; i = inactive; ? = inconclusive. % is scaled to controls: 0 for no effect and ±100 for the full control effect; potency is read from the fitted curve at half-maximal effect. These rows are one share of the data, so the mix of outcomes need not match the whole.

Start of the data: the first 4 entries, ahead of the listing:
CCOC(=O)N1CCC2(CC1)C(C(=O)C13CC4CC(CC(C4)C1)C3)C2(C#N)C#N (configuration not stated)
  HPGD block = -3%

CC1=C(C(=O)Nc2ccccc2)C(c2ccccc2)N2C(=O)CSC2=N1 (configuration not stated)
  HPGD block = -9%

COc1ccccc1NC(=O)CC(=O)CSc1nnc(-c2ccc(C)cc2)n1C
  HPGD block = -15%

C[N+](C)(C)c1ncnc2c1ncn2[C@@H]1CCCCO1
  HPGD block = -7%

This part in full, from the first entry:
CCOC(=O)N1CCC2(CC1)C(C(=O)C13CC4CC(CC(C4)C1)C3)C2(C#N)C#N (configuration not stated)
  HPGD block = -3%

CC1=C(C(=O)Nc2ccccc2)C(c2ccccc2)N2C(=O)CSC2=N1 (configuration not stated)
  HPGD block = -9%

COc1ccccc1NC(=O)CC(=O)CSc1nnc(-c2ccc(C)cc2)n1C
  HPGD block = -15%

C[N+](C)(C)c1ncnc2c1ncn2[C@@H]1CCCCO1
  HPGD block = -7%

CC(C)Cn1c(CN(C)Cc2ccccc2)nc2c1c(=O)n(C)c(=O)n2C
  HPGD block = 3%

Cc1ccc2oc(-c3ccccc3)c(O)c(=O)c2c1
  HPGD block = -4%

CCCNC(=O)c1csc2c1CCCCC2
  HPGD block = ?

CCCOc1ccc(N2C(=O)CC(SC(=NC)Nc3ccc(F)cc3)C2=O)cc1 (configuration not stated)
  HPGD block = -10%

C/C(=N\NC(=O)c1c(Br)c(C)nn1C)c1cccc(NC(=O)C2CCC2)c1
  HPGD block = -15%

O=S(=O)(Nc1ccc(N2CCCCC2)cc1)c1cccc2cccnc12
  HPGD block = -5%

O=C(N/N=C/c1cccc([N+](=O)[O-])c1)c1ccc2nc[nH]c2c1
  HPGD block = -23%

Cc1cccc(N2CC(C)Cn3c2nc2c3c(=O)n(CC(=O)OCc3ccccc3)c(=O)n2C)c1 (configuration not stated)
  HPGD block = -30%

Cc1nc2ccccc2n1C(=O)c1ccc(Cl)cc1[N+](=O)[O-]
  HPGD block = ?

CCS(=O)(=O)c1ccc2oc(SCC(=O)NCCC3=CCCCC3)nc2c1
  HPGD block = 0%

CN1CCc2ccccc2CC1=O
  HPGD block = 2%

COC(=O)CCC(=O)OC1(C)C(=O)C=C2C=C(CCCNC(=O)OC(C)(C)C)OC=C2C1=O (configuration not stated)
  HPGD block = 3%

N=c1nc(SCCC(=O)O)ss1
  HPGD block = -8%

COc1ccc(C2(C(=O)Nc3ccc(C(=O)N4CCOCC4)cc3)CCOCC2)cc1
  HPGD block = ?

O=C(O)C1CSC2(c3ccc4c(c3)OCCO4)CCC(=O)N12 (configuration not stated)
  HPGD block = -1%

O=[N+]([O-])c1ccc(NNC(=S)Nc2ccc(F)cc2)cc1
  HPGD block = 22µM*

CCCCCC(=O)N/N=C/c1ccco1
  HPGD block = -23%

Cc1nc2cc(-c3ccc(Cl)cc3)nn2c(C)c1CCC(=O)NCc1ccco1
  HPGD block = ?

CC(=O)N1CCC(N(CCN2CCOCC2)C(=S)Nc2cccc(C)c2C)CC1
  HPGD block = -11%

CNc1csc(C)c(C)c1=O
  HPGD block = 1%

CC1(C)CC(=O)C=C(Nc2ccc(S(N)(=O)=O)cc2)C1
  HPGD block = -11%

COc1cc(/C=N/OCC(=O)Nc2cc(C)on2)ccc1OCc1ccccc1
  HPGD block = -14%

CN(C)Cc1ccccc1-c1cc(N(C)C)ncn1
  HPGD block = -4%

O=C(O)CCCC(=O)NCCCCc1ccccc1
  HPGD block = -4%

COC(=O)CSc1nc(C(C)C)nc2ccccc12
  HPGD block = -10%

Cc1cccc(NC(=S)NCc2ccncc2)c1C
  HPGD block = -15%

Cc1cc(OCC(=O)NCc2nc(-c3ccccc3)no2)c(C)cc1Br
  HPGD block = -8%

CCOC(=O)CNC(=O)c1cnn2cccnc12
  HPGD block = ?

COc1ccc2c(COC(=O)CNC(=O)C34CC5CC(CC(C5)C3)C4)cc(=O)oc2c1
  HPGD block = ?

CN(C(=O)c1ccc2c(=O)n3c(nc2c1)CCCCC3)c1ccccc1
  HPGD block = -15%

COc1ccccc1-n1c(SCC(=O)N2CCCCC2)nnc1-c1ccccc1O
  HPGD block = -14%

Cc1sc(N)c(C#N)c1C
  HPGD block = -9%

O=C1CC(c2ccccc2)n2nc(NS(=O)(=O)c3ccccc3)nc2N1 (configuration not stated)
  HPGD block = -19%

CC(=O)Nc1ccc(C(=O)Nc2nc(-c3cc(C)n(Cc4ccccc4)c3C)cs2)cc1
  HPGD block = -18%

COc1cccc(Cn2nnc3c(=O)[nH]c(C4CCCN(C(=O)c5ccccc5Cl)C4)nc32)c1 (configuration not stated)
  HPGD block = 14µM*

C[N+](C)(C)CCCSc1nc2ccccc2[nH]1
  HPGD block = -2%

COC(=O)CCSc1nccn1Cc1ccccc1
  HPGD block = -26%

COc1ccc(-c2noc(-c3ccccc3Cl)n2)cc1OC
  HPGD block = -29%

CCCn1c(=O)c2c(C(F)(F)F)cc(-c3ccco3)nc2n(CCC)c1=O
  HPGD block = ?

CCOC(=O)c1cn(Cc2ccc(Br)cc2)nn1
  HPGD block = -2%

Cc1cc(C)n2nc(SCc3nnc(SCc4ccccc4C)s3)nc2n1
  HPGD block = 25µM*

Clc1ccc(CSc2ncn(-c3ccccc3)n2)cc1
  HPGD block = -30%

Cc1ccc(NC(=O)/C(=C\c2cccnc2)NC(=O)c2ccco2)cc1
  HPGD block = -21%

COC(=O)CCC(=O)Nc1ccc(C)cc1OC(=O)CCC(=O)OC
  HPGD block = -13%

COc1ccc(NC(=O)CSc2nnc(-c3ccccn3)n2N)cc1
  HPGD block = -12%

CCOc1cc(-c2cc(-c3ccccc3)nc(N)c2C#N)ccc1O
  HPGD block = ?

COc1ccc(NC(=O)CSc2nc3c(c(=O)[nH]2)CCC3)cc1OC
  HPGD block = -6%

CC([NH2+][O-])C(C)(C)NO (configuration not stated)
  HPGD block = -10%

CC(=O)c1cccc(NC(=O)c2ccc(NS(C)(=O)=O)cc2)c1
  HPGD block = 13µM*

CC(NC(=O)C1CCCN(C(=O)N(C)C)C1)c1ccccc1 (configuration not stated)
  HPGD block = 3%

O=C(Cn1cc(/C=N/NC(=O)c2ccccc2Br)c2ccccc21)Nc1ccc(F)cc1
  HPGD block = ?

CCOc1ccc(NC(=O)CNc2ccc(C)cc2Cl)cc1
  HPGD block = -12%

CN(C)c1nc(OCC(=O)NC(C)(C)C)nc(N(C)C)n1
  HPGD block = -8%

Cc1cc(C)nc(Sc2nc(C)nc3c2oc2ccccc23)n1
  HPGD block = 32µM*

CCCCNC(=O)C1c2cc(OC)c(OC)cc2C(=O)N(C)C1c1ccc(OC)cc1 (configuration not stated)
  HPGD block = 2%

Cc1cccc(NC(=O)C2CCCN(C(=O)Nc3ccccc3)C2)c1C (configuration not stated)
  HPGD block = 0%

COC(=O)CCCCC1SCC(NC(=O)OC)C1NC(=O)OC (configuration not stated)
  HPGD block = -10%

COc1ccccc1CNC(=O)C1CCN(S(C)(=O)=O)CC1
  HPGD block = -1%

NC(N)=NNC(=O)c1ccccc1Cl
  HPGD block = -10%

CCc1ccc(-c2nc(CN3CCCC(C(=O)NCCc4ccc(OC)c(OC)c4)C3)c(C)o2)cc1 (configuration not stated)
  HPGD block = -10%

CN(C)c1ccc(C(=O)n2nnc3ccccc32)cc1
  HPGD block = -28%

Cc1cccc(NC(=S)N2CCCCC2)c1
  HPGD block = -10%

CCOc1cccc2cc(-c3nnc(NCc4ccco4)s3)c(=O)oc12
  HPGD block = -8%

COc1ccc(C(=O)N2CCC(C(=O)Nc3ccc4c(c3)OCCO4)CC2)cc1
  HPGD block = -5%

CCCC[n+]1ccn(-c2nc3ccccc3nc2[N-]S(=O)(=O)c2ccccc2)c1
  HPGD block = ?

O=C(Nc1cccc(NC(=O)C2CC2)n1)C1CC1
  HPGD block = ?

CC(=O)c1cc2c(C)c(C(=O)c3ccccc3)oc2cc1O
  HPGD block = -24%

Cc1nc2ccccc2n1CC(O)Cn1c2ccccc2c2ccccc21 (configuration not stated)
  HPGD block = -10%

CC(C)(C)NC(=O)NC(=O)COC(=O)c1cccc(NS(=O)(=O)c2ccc(F)c(F)c2)c1
  HPGD block = -9%

O=C(Cn1cccc1)N1CCN(C(c2ccccc2)c2ccccc2)CC1
  HPGD block = -15%

COc1ccccc1-n1c(=O)oc2ccc(Cl)cc2c1=O
  HPGD block = -9%

structure	HPGD block
Cc1cccc(N=C(N2CCOCC2)P(=O)(N2CCOCC2)N2CCOCC2)c1	-5%
COc1cc(-c2nnc(-c3ccc(S(=O)(=O)c4ccccc4)cc3)o2)cc(OC)c1OC	i
Cc1cccc(NC(=O)CNc2cc(C)ccc2C)c1	-3%
Cc1nnc(-c2ccccc2)c[n+]1[O-]	1%
Cc1ccc(CS(=O)(=O)c2ccccc2-c2nnc(-c3ccc(Cl)cc3)o2)cc1	?
Cc1cc(C)n2nc(C(=O)Nc3ccc(S(=O)(=O)N4CCCCC4)cc3)nc2n1	?
O=C(Nc1c(Cl)cccc1Cl)C1CCC1	2%
Cc1nc(NC(=O)CC(C)C)sc1-c1csc(Nc2ccc(Cl)cc2)n1	?
CC(C)(C)NS(=O)(=O)c1ccc2nc(NC(=O)Cc3cccs3)sc2c1	-15%
C/C(CC(=O)Nc1ccc(Cl)cc1Cl)=N\NC(=O)C(=O)NCCO	-4%
NC(=O)c1ccsc1NC(=O)c1ccc(S(=O)(=O)N2CCCCC2)cc1	?
O=C(Cn1nnc(-c2cccc(C(F)(F)F)c2)n1)NC1CCCC1	-5%

Quoted at random: two compounds from above
structure	HPGD block
NC(=O)c1ccsc1NC(=O)c1ccc(S(=O)(=O)N2CCCCC2)cc1	?
Cc1ccc(CS(=O)(=O)c2ccccc2-c2nnc(-c3ccc(Cl)cc3)o2)cc1	?

(continued)
structure	HPGD block
CCC1=C(OC(=O)N(CC)CC)N2C(=O)OC(=NCC(=O)OC)[C@]2(Cc2ccccc2)[C@H]2C1=CC[C@H]1C(=O)NC(=O)[C@H]12	-3%
O=C(CC(SCCO)c1ccc(F)cc1)c1ccco1 (configuration not stated)	-27%
O=C(O)c1[nH]c2c([N+](=O)[O-])cc([N+](=O)[O-])cc2c1C(=O)O	-13%
Cc1ccc(N(C(=O)Cn2nnc(-c3ccc(F)cc3)n2)C(CC(C)C)C(=O)NCC2CCCO2)cc1 (configuration not stated)	-16%
CCc1ccccc1NC(=S)N(CCCN1CCOCC1)Cc1cccs1	-4%
C=CCSc1nnc(-c2ccccc2N=Cc2c(C)[nH]n(-c3ccccc3)c2=O)c(=O)[nH]1	-21%
Fc1ccc(CSc2nsc(SCc3ccc(F)cc3)n2)cc1	-19%
CCSc1nc2nc(C)cc(C)n2n1	-9%
COc1ccc(C(=O)N/C(=C/c2cccc3ccccc23)C(=O)NCCc2c[nH]c3ccccc23)cc1OC	-13%
Cc1ccc(-n2nnc3c(=O)n(CC(=O)NCC4CCCO4)cnc32)cc1 (configuration not stated)	-12%
O=C(c1ccc(S(=O)(=O)N2CCCC2)cc1)N1CCCc2ccccc21	-4%
OCCNc1ncnc2nc[nH]c12	-12%

structure	HPGD block
COC(=O)c1ccc(-n2nnnc2SC)cc1	13µM*
Cn1c(CN2CCCC2)nc2cc(NC(=O)COc3ccc(Cl)cc3)ccc21	-5%
CC(C)OCCCN1C(=O)c2ccccc2C1C(=O)NC1CCCCC1 (configuration not stated)	-4%
CCOC(=O)c1c(-c2ccsc2)csc1N	-10%
Cc1cc(C)cc(OCC(=O)N2N=C(c3cccnc3)CC2(O)C(F)(F)F)c1 (configuration not stated)	-20%
O=C(O)c1cccc(N2C(=O)CSC2c2c(F)cccc2Cl)c1 (configuration not stated)	-4%
CCCC(=O)OCC(=O)Nc1cc(C(C)(C)C)nn1-c1ccccc1	?
Cc1cccc(Nc2nc(N3CCCCC3)nc(N3CCCCC3)n2)c1	-8%
COc1ccc(C2(CNC(=O)Cc3ccccc3)CCCC2)cc1OC	2%
CS(=O)(=O)NCCSCc1c(F)cccc1Cl	0%
Cc1ccc2oc(=O)n(CC(=O)O)c2c1	-10%
O=C(CCCCCn1c(=O)[nH]c2ccsc2c1=O)N1CCN(C2CCCCC2)CC1	-25%

A draw from above in order of length of the SMILES, rising.
structure	HPGD block
COC(=O)c1ccc(-n2nnnc2SC)cc1	13µM*
Cc1cccc(Nc2nc(N3CCCCC3)nc(N3CCCCC3)n2)c1	-8%
CCCC(=O)OCC(=O)Nc1cc(C(C)(C)C)nn1-c1ccccc1	?
Cc1cc(C)cc(OCC(=O)N2N=C(c3cccnc3)CC2(O)C(F)(F)F)c1 (configuration not stated)	-20%

Continuation.
structure	HPGD block
Cc1ccc(OCC(O)CN2CCN(CC(O)COC(C)C)CC2)c(C(C)(C)C)c1 (configuration not stated)	0%
CCCc1[nH]n(-c2ccc(F)cc2)c(=O)c1C=Nc1ccc(C)cc1	-4%
Cc1ccc(C(=O)N/C(=C\c2ccc(-c3ccc(Br)cc3)o2)C(=O)NC2CCS(=O)(=O)C2)cc1 (configuration not stated)	?
Cc1cccc(N2CCN(S(=O)(=O)c3ccc4[nH]c(=O)c(=O)[nH]c4c3)CC2C)c1 (configuration not stated)	-5%
Nc1nc(N)c(CCCCc2ccccc2)c(N)n1	2%
COc1ccc(CCNC(=O)c2cc3ccccn3n2)c(OC)c1OC	?
CC12CCC(C(=O)NCCCn3ccnc3)(OC1=O)C2(C)C (configuration not stated)	-3%
COC(=O)C1CCN(S(C)(=O)=O)CC1	-8%
COc1ccc(C)cc1S(=O)(=O)N1CCC(C(=O)NCCC2=CCCCC2)CC1	-11%
CCN(Cc1ccccc1)C(=O)COc1cc(=O)n(CC)c2ccccc12	-24%
CCC1=Nc2cc(C(=O)NCc3ccco3)ccc2Sc2ccc(Cl)cc21	-27%
O=C(CCC1CCCCC1)NCc1cccs1	10µM*
NC(=O)c1cc2ccc(O)cc2oc1=NCc1ccccc1	?
CCOc1ccc2nc(N3CCCN(C(=O)Nc4ccccc4C)CC3)c(C#N)cc2c1	-23%
